# ClpP mod = qHTS Assay for Activators of ClpP. ATP-dependent Clp protease proteolytic subunit (Bacillus subtilis (strain 168)), P80244. actives 1.9% (n = 340,000). Potency, µM (highest dose often 57.5 µM), for inactives: at the highest dose activity change, negative = active. purified B. subtilis ClpP, FRET peptide cleavage, 20 min; active = well fitted falling curve with a large enough effect; inconclusive = small, poorly fitted or top-dose-only effect; inactive = no such curve, though single readings can be large or run the other way; further: potency means the concentration at half of the fitted maximal effect; the source files actives as falling curves though it sought activators and does not explain the sign; nearly all actives have a fitted effect of over 65% in size; many hits overshoot -100%
# Target sequence (P80244 whole entry, looked up): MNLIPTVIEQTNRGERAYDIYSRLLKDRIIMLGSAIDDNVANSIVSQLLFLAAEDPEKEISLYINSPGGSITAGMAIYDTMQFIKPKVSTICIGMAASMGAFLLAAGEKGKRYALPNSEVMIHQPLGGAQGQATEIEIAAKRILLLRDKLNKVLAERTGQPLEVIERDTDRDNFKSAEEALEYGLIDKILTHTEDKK
#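 ClpP 10 microg/mL final, pH 8 Tris/KCl buffer with BSA, glycerol, Tween-20; compound pinned in; FRET-FV substrate; RT 20 min; Ex320/Em430; ΔFRET vs ADEP 5.8 microM, DMSO, no enzyme.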
# gsp antag = antagonists of gsp mutant (McCune-Albright syndrome). AID 624288. Potency, µM (series often up to 76.9 µM), for the others: top-dose activity change, negative = inhibition, most hits filed as inhibitors. actives 0.4% (n = 340,000). gsp-mutant cells, cAMP HTRF, 30 min; control for the full effect not named in the record; active = falling curve of any shape with a large fitted effect; inconclusive = falling curve, mostly with a smaller effect; inactive = flat or rising curve; cell line not stated here;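 further: intracellular cAMP measured with PDE inhibitor Ro 20-1724 present during compound exposure; potency means the concentration at half of the fitted maximal effect; on the % scale 0 is the no-effect control and ±100 the full control effect; nearly all actives have a fitted effect of over 65% in size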
#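 Cells, 2000/well, grown 16–24 h in DMEM 10% FBS with 0.5 mg/ml G418, then compounds plus […] (300 uM addition stock), 30 min at 37C. cAMP read by HTRF (cAMP-d2 and anti-cAMP antibody-K in lysis buffer) after 30 min RT.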
# Menin MLL FP FL = inhibitors of human menin-MLL interaction, wild-type MLL peptide; 290,000 tested, under 10 active; AID 1766; Fluorescence polarization, fluorescein-MLL peptide displacement from menin; FP activity change, % at 61.4 µM; inconclusive = falling polarisation curve, or a change in total fluorescence; inactive = total fluorescence flat and polarisation flat or rising; no compound was filed as active; the % refers to the polarisation; negative = inhibition;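 further: % of control where 0% means no effect; inhibitors lower the polarisation; unlabelled MLL peptide was the positive control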
# gsp ag = agonists of gsp mutant (McCune-Albright syndrome); gsp mutant cells, cAMP HTRF, 30 min; control for the full effect not named in the record; actives 0.13% (n = 340,000); AID 624287; Potency, µM (highest dose often 76.9 µM), inactives show top-dose activation (cAMP increase), usual class: activators; active = well fitted activation curve with a large enough effect; inconclusive = small, poorly fitted or top-dose-only effect, or another doubt; inactive = no such curve, though single readings can be large or run the other way; cell line not stated here;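 further: phosphodiesterase inhibitor Ro 20-1724 added with compounds to block cAMP breakdown; potency means the concentration at half of the fitted maximal effect; nearly all actives have a fitted effect of over 60% in size; about a fifth of the inactives were tested at one dose only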
#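 Cells stably selected in G418 were plated at 2000/well, grown 16-24 hr, then given compounds in DMSO with the PDE inhibitor […] (300 uM solution added) for 30 min at 37C; cAMP was read by HTRF.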
# Sfp inh = inhibitors of Bacillus subtilis Sfp phosphopantetheinyl transferase; Q9F4F7; Biochemical Sfp PPTase activity, qHTS; Potency, µM, inactives show max response, negative = inhibition, hits mostly inhibitors; actives 3.5% (n = 310,000); active means well fitted inhibition curve with a large enough effect; inconclusive means small, poorly fitted or top-dose-only effect, or another doubt; inactive means no such curve, though single readings can be large or run the other way;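 further: the enzyme is Sfp with the accession as filed and its product quenches rhodamine fluorescence; potency means the concentration at half of the fitted maximal effect; 0% = enzyme reaction without inhibitor and -100% = no enzyme wells; top concentration of the series not given in the record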
#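 Fluorescence-quenching assay: 15 nM Sfp-PPTase preincubated 15 min at room temperature with compound, then 5 uM rhodamine-CoA and 12.5 uM BHQ-2-labelled YbbR peptide added. Fluorescence (ex 525/em 598 nm) read at start and after 30 min; difference gives rate.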
# TRPV1 PAM = human TRPV1 potentiation | Q8NER1 | TRPV1-expressing cells, Fluo-8 calcium influx, capsaicin EC20 potentiation; host cell line not named in the record; control for the full effect not named in the record | potentiation, % at 8.33 µM | actives 0.02% (n = 320,000); active means potentiation above 80%; inconclusive means 30% to 80%; inactive means below 30%; further: 0% is about no effect
#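 Fluo-8 calcium influx in TRPV1-expressing cells, kinetic read (ex 480/em 520 nm). Compound added and read 3 min for agonist activity, followed by capsaicin at EC20 final and 2 min further read for enhancement.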
# TRPML1 blocker = blocks the human TRPML1 channel | TRPML1-inducible cells, Ca2+ dye fluorescence, FDSS; stronger effect = lower value; inhibition of EC80 agonist-evoked calcium signal | activity change, negative = inhibition, % (test concentration not listed) | actives 0.02% (n = 390,000) | AID 624415; in the data active means activity change below about -50%; inconclusive means about -30% to -50%; inactive means above about -30%;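 further: stimulus is agonist 54-4 at its EC80 concentration; on the % scale 0 is the no-effect control and ±100 the full control effect; compound concentration not given in the record; the text of the record puts the active cut at -80%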
# Target sequence (Q9GZU1 whole entry, looked up): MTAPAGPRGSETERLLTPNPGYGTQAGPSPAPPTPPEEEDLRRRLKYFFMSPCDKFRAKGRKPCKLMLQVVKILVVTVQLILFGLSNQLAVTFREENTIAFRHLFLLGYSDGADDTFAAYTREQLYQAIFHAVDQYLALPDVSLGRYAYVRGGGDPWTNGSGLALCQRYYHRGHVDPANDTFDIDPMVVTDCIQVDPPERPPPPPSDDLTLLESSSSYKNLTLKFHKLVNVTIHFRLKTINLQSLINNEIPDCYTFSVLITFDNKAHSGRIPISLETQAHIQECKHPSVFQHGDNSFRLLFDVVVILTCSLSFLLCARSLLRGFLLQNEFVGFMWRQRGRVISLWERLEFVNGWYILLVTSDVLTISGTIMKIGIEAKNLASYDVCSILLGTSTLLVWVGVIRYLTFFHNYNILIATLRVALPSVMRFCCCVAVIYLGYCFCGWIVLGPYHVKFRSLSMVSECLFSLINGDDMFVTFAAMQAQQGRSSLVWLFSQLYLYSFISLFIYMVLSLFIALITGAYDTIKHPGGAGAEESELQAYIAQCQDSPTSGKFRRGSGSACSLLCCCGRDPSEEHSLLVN
#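 Tet-induced TRPML1-DL cells loaded with Ca8 no-wash calcium dye were read kinetically on FDSS. Compound addition was followed by EC80 agonist 54-4 (4 uM final); inhibition was read over 110 s.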
# The depositor's hits bear a star; ? = inconclusive; nt = no result given; & = joins results of further samples; [ ] = another dose, or the depositor's remark.
SMILES,ClpP mod,gsp antag,Menin MLL FP FL,gsp ag,Sfp inh,TRPV1 PAM,TRPML1 blocker
O=C(O)c1ccc(CNCc2cccc(Oc3ccccc3)c2)cc1,0.6%,-6.2%,-2.3,0.7%,8.9%,9.0,3.9
Cc1cccc(NC(=O)c2ccc(-c3ccccc3[N+](=O)[O-])o2)c1,nt,-22.7%,12.9,-3.4%[15.4 µM],50.1µM*,18.0,2.0
COc1ccc(CC(=O)N(C)CC(=O)Nc2ccccc2SC)cc1,0.4%,11.8%,4.3,-2.8%[15.4 µM],12.0%,-3.1,-19.2
O/N=C1/CC/C(=N\O)c2nn(-c3ccccc3)nc21,-10.2%,4.3%,0.2,-29.6%,7.5%,-9.8,-2.1
CN(C)/C=N/C1=C(C#N)C(c2ccc(Br)cc2)c2ccc3ccccc3c2O1 (centres undefined),nt,-3.3%,4.3,29.2%,-7.0%,?,-11.6
CCOc1cc(C)c(S(=O)(=O)Nc2ccc(Cl)cn2)cc1C,-6.3%,-29.9%,2.1,6.5%,-1.5%,-1.9,-10.4
CC1CC(=O)N(c2ccc(NCCc3ccc(O)cc3)c([N+](=O)[O-])c2)C1=O (centres undefined),nt,?,-0.6,0.2%[15.4 µM],2.8%,7.4,0.8
Cc1ccc(C(=O)NCCSc2ccc(Cl)cc2)cc1S(=O)(=O)Nc1ccccc1,-0.8%,?,-2.4,-65.3%[inhibitor],36.2%[activator],?,-1.1
Cn1cc(/C=C(\C#N)C(=O)Nc2ncc(Cc3cccc(Cl)c3)s2)c2ccccc21,nt,nt,?,nt,10.1%,11.1,nt
COc1ccc(N2C(=O)CC(N3CCN(S(=O)(=O)c4c(F)cccc4F)CC3)C2=O)cc1OC (centres undefined),0.5%,7.3%,-1.5,-15.5%,-2.4%,20.9,-6.7
CN1CCc2c(C#N)c(N3CCCCC3)nc(NCc3ccccc3)c2C1,?,10.1%,?,1.7%,?,-12.8,6.1
Cc1ccc(S(=O)(=O)N2CCCCC2)cc1NC(=O)c1cnccn1,1.8%,-1.8%,nt,?,nt,0.3,-3.9
C=CCC[C@@H](Cc1ccc(F)cc1)C(=O)OC[C@@H](Cc1c[nH]c2ccccc12)NC(=O)[C@@H](CC=C)CC(=O)N[C@H](CO)Cc1ccccc1,2.3%,0.1%,nt,-42.9%[inhibitor],nt,nt,6.5
O=C(COc1ccc(S(=O)(=O)N2CCOCC2)cc1)NCCc1ccc(Cl)cc1,0.4%,nt,nt,20.6%,nt,nt,1.6
O=C(NCCN1C(=O)S/C(=C\c2cccs2)C1=O)[C@H](Cc1ccccc1)N1C(=O)c2ccccc2C1=O,nt,nt,6.7,nt,2.7%,-1.6,nt
COc1ccc(C(=O)/C=C\c2ccc(NC(=O)c3cccs3)cc2)cc1,-29.7%,-8.2%,6.1,?,4.3%,-9.2,-5.3
C=CCOC(=O)C1=C(C)OC(N)=C(C#N)C1c1ccc(OC)c(CSc2ccccn2)c1 (centres undefined),-0.9%,-1.9%,6.7,?,18.3%,-6.7,1.8
CCCNC(=O)c1ccc(COc2ccc(CCC)cc2OC)o1,nt,-3.4%,-0.6,3.1%[15.4 µM],-13.8%,0.5,-4.0
CC(C)(COC(=O)C(c1ccccc1)c1ccccc1)CN1CCOCC1,nt,-8.2%,nt,-10.7%,nt,nt,25.8
COc1ccc(C(=O)Nc2cccc(C(=O)N3CCCCC3)c2)cc1,0.6%,-17.3%,nt,-47.1%[inhibitor],16.1%,-6.3,4.5
Cc1ccc(CN2CCN(Cc3c(C)nn(-c4ccc(F)cc4)c3C)CC2CCO)o1 (centres undefined),0.8%,0.4%,-3.5,-34.2%[inhibitor],12.9%,7.7,-6.2
CC1(C)C2CCC1(C)C(OC(=O)c1ccccc1C(=O)O)C2 (centres undefined),nt,3.6%,1.0,21.2%[15.4 µM],28.1%,5.1,7.5
CCCc1nnc(NC(=O)CCC(=O)N2CCN(S(=O)(=O)c3ccc(C)cc3)CC2)s1,nt,-15.7%,-0.3,-0.1%[15.4 µM],1.8%,-7.3,4.0
Cc1cc(=O)oc2cc(OCCSc3nnc(-c4ccccc4)o3)ccc12,-0.2%,2.5%,nt,17.8%[15.4 µM],1.9%,?,36.7
CC(Oc1ccccc1F)C(=O)NNC(=O)c1ccc(F)c(S(=O)(=O)N2CCOCC2)c1 (centres undefined),1.2%,-2.8%,nt,-21.7%,11.2%,-7.4,0.7

# Continuation.
SMILES,ClpP mod,gsp antag,Menin MLL FP FL,gsp ag,Sfp inh,TRPV1 PAM,TRPML1 blocker
Cc1cccc(C)c1NC(=O)CNC(=O)C1CCCN(C(=O)c2ccc(Cl)cc2)C1 (centres undefined),-1.2%,4.4%,nt,-36.0%[inhibitor],nt,3.9,-14.8
COc1ccc(/C=C(/NC(=O)c2ccccc2)c2nc3ccc(Cl)cc3[nH]2)cc1OC,-9.4%,?,nt,8.1%,10.8%,4.4,-13.4
CCCC(=O)NC1CCc2cc(OC)c(OC)c(OC)c2-c2ccc(OC)c(=O)cc21 (centres undefined),-2.4%,5.3%,nt,6.9%,nt,nt,8.9
CCCCCCCNC(=O)C1(CC2CC(c3ccccc3)=NO2)CCNCC1 (centres undefined),-3.9%,9.8%,nt,1.2%,nt,4.3,0.1
COCC(C)N=CC1=C(O)CC(C)(C)CC1=O (centres undefined),-0.5%,4.1%,-0.1,-6.0%,21.3%,-16.6,3.9
Cc1cc(C(=O)NC(=S)Nc2cccc(NC(=O)C(C)C)c2)ccc1[N+](=O)[O-],-0.7%,?,3.1,-16.4%,?,18.9,-7.0
Cc1ccc(C(=O)c2coc3c2C(=O)C(=O)c2ccccc2-3)cc1,0.9%,4.6%,-5.6,-35.7%[inhibitor],44.7µM*,16.5,-6.3
COC(=O)C1CCN(C(=O)COC(=O)/C=C/c2ccc(O)c(OC)c2)CC1,-18.6%,-16.2%,nt,-19.1%,nt,nt,-19.6
CCCN1CCN(C(=O)C2CCN(c3ncnc4c3nc3n4CCCCC3)CC2)CC1,-0.8%,3.2%,-3.1,17.1%,4.0%,0.2,3.9
COc1ccc(N(C(=O)COc2ccc(C)cc2)S(=O)(=O)c2ccc(C)cc2)cc1,-1.3%,4.2%,7.4,13.4%,-3.6%,4.0,21.6
Cc1ccc(C)c(-n2nnnc2SCC(=O)NNC(=O)c2ccco2)c1,-3.8%,-1.7%,-6.2,-47.5%[inhibitor],17.1%,0.3,-19.9
CCc1nn(CCCC(=O)NCc2ccc(OC(C)C)cc2)c(=O)c2cc3occc3n12,-7.4%&-0.5%,8.2%,-0.2,27.6%,9.5%,0.7,3.8&40.1
COc1ccccc1CC(=O)Nc1ccc(S(=O)(=O)N2CCN(C)CC2)cc1,1.6%,-0.9%,nt,1.6%,16.6%,3.7,10.0
COc1ccc2ncc(OC(C)=O)cc2c1,?,4.4%,7.3,-43.8%[inhibitor],-0.3%,0.2,7.7
C[C@@H]1CN([C@H](C)CO)C(=O)c2cc(C#Cc3ccccc3F)cnc2O[C@@H]1CN(C)S(=O)(=O)c1ccccc1F,-3.7%,nt,nt,-16.3%,nt,nt,13.8
O=C(COC(=O)c1cccs1)Nc1ccccc1C(F)(F)F,1.3%,16.4%,-1.1,-0.1%,2.4%,16.6,-9.6
Cc1cc(Cl)c2oc(C(=O)N3CCN(c4cnccn4)CC3)c(C)c2c1,?,nt,nt,-17.9%,nt,nt,4.5
COc1ccc(-c2c(NC(=O)CC(C)C)n(C)c3ccccc3c2=O)cc1OC,0.9%,-2.1%,-6.4,-1.1%,3.5%,?,-11.8
COc1ccc(/C=N/NC(=O)c2cccc(NC(=O)c3ccccc3Cl)c2)c(OC)c1,nt,-20.5%,1.8,8.8%[15.4 µM],2.8%,15.3,7.6
Cc1ccc(C(=O)C2=C(O)C(=O)N(c3ncccn3)C2c2ccc(F)cc2)o1 (centres undefined),nt,20.2%,6.2,46.1%[15.4 µM],8.8%,-7.2,-1.2
CC(C)Nc1nc(-c2cccnc2)nc(-c2ccccc2)c1C#N,-9.2%,-17.5%,2.3,25.5%,6.2%,-2.9,-9.9
CCC1=C(OC(=O)N(CC)CC)N2C(=O)OC(=NCCc3c[nH]c4ccccc34)[C@]2(Cc2ccccc2)[C@H]2C1=CC[C@H]1C(=O)N(CC(=O)OC)C(=O)[C@H]12,-0.8%,?,0.9&1.3,7.4%,7.8%&2.5%,-17.5,-8.5
C=CCn1c(=O)c(C(=O)Nc2ccc(C)cn2)c(O)c2ccccc21,1.2%,2.8%,2.9,3.1%,16.2%,-44.4,-23.6
COc1ccccc1CNC(=S)Nc1ccc2nc(N3CCN(C)CC3)cc(C)c2c1,nt,10.1%,10.4,10.9%[15.4 µM],56.2µM*,6.9,-15.8
COc1ccc(N(CC(=O)Nc2ccccc2F)S(=O)(=O)c2ccc(C)c([N+](=O)[O-])c2)cc1,nt,-10.8%,-2.4,?,22.8%,10.1,45.4

# Following part
SMILES,ClpP mod,gsp antag,Menin MLL FP FL,gsp ag,Sfp inh,TRPV1 PAM,TRPML1 blocker
O=c1cc(CN2CCN(Cc3ccccc3)CC2)c2cc(Cl)ccc2o1,1.4%,-9.7%,3.6,11.4%[15.4 µM],10.8%,-24.6,-29.5
O=[N+]([O-])c1cccc(S(=O)(=O)c2ccc(NCCOCCO)c([N+](=O)[O-])c2)c1,nt,9.6%,2.7,?,13.2%,8.9,-0.5
CNC(=O)c1c2c(nc3ccc(Br)cc13)CCCC2,nt,-1.6%,2.0,?,8.3%,-6.8,-14.0
O=C(c1ccccc1)N1CCn2c1nc1ccccc12,nt,2.6%,2.2,-14.2%[15.4 µM],2.3%,7.5,-3.2
CCCCNC(=O)Cn1cnc2sc(C)c(S(=O)(=O)N3CCN(c4ncccn4)CC3)c2c1=O,nt,-5.6%,1.4,-9.9%,11.1%,-0.5,-6.9
CCCCn1nnnc1NCc1ccc(N2CCCC2)cc1,-2.2%,-0.9%,2.5,2.5%,-19.8%,-27.9,25.4
CN(C)CCCN(C(=O)CCc1ccccc1)c1nc2ccc(Br)cc2s1,nt,19.8%,-0.1,9.9%[15.4 µM],?,-18.8,9.8

# Compound activity: PubChem, National Center for Advancing Translational Sciences (NCATS)
